gsp agonist: gsp mutant agonism. actives 0.13% (n = 340,000). gsp mutant cells, cAMP HTRF, 30 min; control for the full effect not named in the record. Potency, µM (series often up to 76.9 µM), for inactives: at the top dose activation (cAMP increase), usual class: activators. AID 624287; active = well fitted activation curve with a large enough effect; inconclusive = small, poorly fitted or top-dose-only effect, or another doubt; inactive = no such curve, though single readings can be large or run the other way; cell line not stated here;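 also: phosphodiesterase inhibitor Ro 20-1724 added with compounds to block cAMP breakdown; potency is read from the fitted curve at half-maximal effect; nearly all actives have a fitted effect of over 60% in size; about a fifth of the inactives were tested at one dose only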
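Cells in DMEM/10% FBS with G418 were pretreated with compounds in DMSO plus […] (300 uM stock) for 30 min at 37C. cAMP was measured by HTRF (cAMP-d2 plus anti-cAMP antibody-K) after 30 min at room temperature.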
Sfp PPTase inh: Sfp phosphopantetheinyl transferase inhibition; Biochemical Sfp PPTase activity, qHTS; Potency, µM, for the others: max response, negative = inhibition, hits mostly inhibitors; actives 3.5% (n = 310,000); Q9F4F7; active = well fitted inhibition curve with a large enough effect; inconclusive = small, poorly fitted or top-dose-only effect, or another doubt; inactive = no such curve, though single readings can be large or run the other way;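 also: the enzyme is Sfp with the accession as filed and its product quenches rhodamine fluorescence; potency is read from the fitted curve at half-maximal effect; 0% = enzyme reaction without inhibitor and -100% = no enzyme wells; top concentration of the series not given in the record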
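Fluorescence-quenching assay: 15 nM Sfp-PPTase preincubated 15 min at room temperature with compound, then 5 uM rhodamine-CoA and 12.5 uM BHQ-2-labelled YbbR peptide added. Fluorescence (ex 525/em 598 nm) read at start and after 30 min; difference gives rate.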
Menin MLL FP FL: menin-MLL binding inhibition, fluorescein peptide | 290,000 tested, under 10 active | FP activity change, % at 61.4 µM | Fluorescence polarization, fluorescein-MLL peptide displacement from menin | AID 1766; inconclusive = falling polarisation curve, or a change in total fluorescence; inactive = total fluorescence flat and polarisation flat or rising; no compound was filed as active; the % refers to the polarisation; negative = inhibition;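 also: % of control where 0% means no effect; inhibitors lower the polarisation; unlabelled MLL peptide was the positive control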
CtBP-E1A blk: inhibitors of CtBP/E1A interaction | AlphaScreen GST-E1A/His-CtBP binding, 1536-well; stronger effect = lower value; control for the full effect not named in the record | activity change, % (concentration not given with the values) | actives 0.49% (n = 340,000) | AID 651724; in the data active means activity change below about -65%; inconclusive means about -30% to -65%; inactive means above about -30%; also: % is scaled to controls: 0 for no effect and ±100 for the full control effect
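AlphaScreen with 125 nM GST-E1A and 125 nM His-CtBP (5X stocks) in Tris pH 8.0, 300 mM NaCl, BSA, Tween 20, TCEP. Compounds preincubated 2 h at 37 deg C, then glutathione donor/nickel acceptor beads added for 1 h at 37 deg C in dark.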
TRPV1 PAM: enhances activation of the human vanilloid receptor TRPV1; Q8NER1; TRPV1-expressing cells, Fluo-8 calcium influx, capsaicin EC20 potentiation; host cell line not named in the record; control for the full effect not named in the record; potentiation, % at 8.33 µM; actives 0.02% (n = 320,000); active means potentiation above 80%; inconclusive means 30% to 80%; inactive means below 30%; also: 0% is about no effect
Target sequence (Q8NER1 whole entry, looked up): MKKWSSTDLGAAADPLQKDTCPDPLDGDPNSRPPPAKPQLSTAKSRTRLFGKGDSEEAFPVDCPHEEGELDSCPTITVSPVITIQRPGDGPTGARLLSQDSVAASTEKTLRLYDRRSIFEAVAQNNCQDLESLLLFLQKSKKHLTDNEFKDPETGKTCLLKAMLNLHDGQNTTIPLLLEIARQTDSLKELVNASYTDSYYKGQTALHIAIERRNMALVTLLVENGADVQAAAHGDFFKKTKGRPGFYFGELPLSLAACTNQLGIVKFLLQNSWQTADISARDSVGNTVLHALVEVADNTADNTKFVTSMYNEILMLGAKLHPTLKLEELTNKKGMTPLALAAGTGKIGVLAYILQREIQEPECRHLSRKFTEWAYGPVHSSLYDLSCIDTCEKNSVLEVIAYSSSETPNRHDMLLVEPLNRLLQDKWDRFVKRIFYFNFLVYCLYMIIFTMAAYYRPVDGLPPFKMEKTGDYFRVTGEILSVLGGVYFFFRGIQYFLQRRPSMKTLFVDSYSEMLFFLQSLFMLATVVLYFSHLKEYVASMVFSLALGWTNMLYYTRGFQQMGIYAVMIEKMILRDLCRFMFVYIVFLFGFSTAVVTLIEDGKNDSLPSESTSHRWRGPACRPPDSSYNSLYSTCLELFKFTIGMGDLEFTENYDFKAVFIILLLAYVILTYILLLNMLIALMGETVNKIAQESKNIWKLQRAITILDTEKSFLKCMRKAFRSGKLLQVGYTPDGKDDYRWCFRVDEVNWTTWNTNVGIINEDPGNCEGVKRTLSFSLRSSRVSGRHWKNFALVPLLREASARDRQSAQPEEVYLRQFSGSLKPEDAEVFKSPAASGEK
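Cells expressing TRPV1 were dye-loaded with Fluo-8 and read kinetically: 10 s baseline, 3 min after compound (agonist portion), then 2 min after EC20 capsaicin (allosteric enhancer portion). Calcium-bound dye fluorescence at 480/520 nm.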
ClpP mod: qHTS Assay for Activators of ClpP; AID 651965, 2013; Potency, µM (highest dose often 57.5 µM), for inactives: at the top dose activity change, negative = active; actives 1.9% (n = 340,000); purified B. subtilis ClpP, FRET peptide cleavage, 20 min; ATP-dependent Clp protease proteolytic subunit (Bacillus subtilis (strain 168)), P80244; active = well fitted falling curve with a large enough effect; inconclusive = small, poorly fitted or top-dose-only effect; inactive = no such curve, though single readings can be large or run the other way; also: potency is read from the fitted curve at half-maximal effect; the source files actives as falling curves though it sought activators and does not explain the sign; nearly all actives have a fitted effect of over 65% in size; many hits overshoot -100%
Target sequence (P80244 whole entry, looked up): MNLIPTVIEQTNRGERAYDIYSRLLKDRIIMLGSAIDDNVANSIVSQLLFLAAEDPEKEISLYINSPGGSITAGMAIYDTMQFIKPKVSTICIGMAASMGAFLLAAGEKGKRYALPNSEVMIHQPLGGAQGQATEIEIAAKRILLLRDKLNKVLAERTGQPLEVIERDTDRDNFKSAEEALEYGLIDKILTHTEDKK
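Purified B. subtilis ClpP, 10 microg/mL final in Tris/HCl pH8 with KCl, BSA, glycerol and Tween-20, cleaved an Abz/nitrotyrosine-quenched decapeptide. Fluorescence (ex 320, em 430) was read at 0 and 20 min at room temperature. Delta was normalized to 5.8 microM ADEP and DMSO/no-enzyme controls.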
gsp antagonist: antagonists of gsp mutant (McCune-Albright syndrome); AID 624288; gsp-mutant cells, cAMP HTRF, 30 min; control for the full effect not named in the record; actives 0.4% (n = 340,000); Potency, µM (series often up to 76.9 µM), for the others: top-dose activity change, negative = inhibition, usual class: inhibitors; active = falling curve of any shape with a large fitted effect; inconclusive = falling curve, mostly with a smaller effect; inactive = flat or rising curve; cell line not stated here;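 also: intracellular cAMP measured with PDE inhibitor Ro 20-1724 present during compound exposure; potency is read from the fitted curve at half-maximal effect; % is scaled to controls: 0 for no effect and ±100 for the full control effect; nearly all actives have a fitted effect of over 65% in size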
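Cells, 2000/well, grown 16–24 h in DMEM 10% FBS with 0.5 mg/ml G418, then compounds plus […] (300 uM addition stock), 30 min at 37C. cAMP read by HTRF (cAMP-d2 and anti-cAMP antibody-K in lysis buffer) after 30 min RT.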
Active calls of the source: *; ? = inconclusive; . = no result given; [ ] = dose if it differs, or a comment.

molecule	gsp agonist	Sfp PPTase inh	CtBP-E1A blk	TRPV1 PAM	ClpP mod	gsp antagonist	Menin MLL FP FL
CCOc1ccc(S(=O)(=O)Nc2cc(OC)ccc2OC)cc1	17%	2%	-11	9	-2.1%	6%	1.0
Cc1ccc(CCN2CCN=C2N(C)C)cc1	.	3%	3	14	1.6%	7%	2.4
CCOC(=O)C1CCN(C(=O)Nc2ccc(C)c(Cl)c2)CC1	-31%[15.4 µM]	-1%	-7	-20	-6.5%	3%	2.7
O=C(Cn1nc(C(F)(F)F)c2c1CCC2)NC1CCCCC1	17%	-1%	8	-13	-0.5%	8%	2.2
CCOc1ccc(S(=O)(=O)N2CCCCCC2)cc1	0%	-1%	0	-28	-3.8%	-5%	1.4
COC(=O)C1=C(C)NC(=O)/C1=C\c1cccs1	-28%	17%	7	-1	-2.0%	-16%	2.9
CCOc1ccc(NC(=O)COc2nsnc2N2CCOCC2)cc1	-36%[inhibitor]	0%	.	14	-1.7%	10%	-2.5
Cc1cccc(N(C(=O)Cn2nnc(-c3ccc(F)cc3)n2)C(C(=O)NC(C)(C)C)c2ccncc2)c1 (centres undefined)	12%	8%	-1	5	.	1%	1.2
CN(/N=C/C=C/c1ccccc1)c1cc(=O)n(C)c(=O)[nH]1	22%	?	3	-2	-11%	-11%	4.4
COc1ccc(N2CC(O)=C(c3nc(-c4ccc(Br)cc4)cs3)C2=N)cc1	?	24%	.	3	0.2%	1%	-0.8
COc1ccc(-c2[nH]ncc2CN(C)Cc2nonc2C)c(OC)c1	29%	14%	.	0	-4.7%	3%	-3.9
COC(=O)c1sc2nc(-c3ccco3)ccc2c1N	?	8.9µM*	-1	3	-6.6%	8%	6.0
Cc1cc(Cl)ccc1OC(C)C(=O)NCCCCc1ccccc1 (centres undefined)	0%	-12%	29	-2	-1.0%	-12%	-1.1
CS(=O)(=O)N1CCC(C(=O)NCc2ccc(F)cc2Cl)CC1	-8%	19%	51	24	0.6%	-2%	3.4
CCCCCn1c(CCC(=O)Oc2ccccc2OC)nc2c1c(=O)[nH]c(=O)n2CCCC	-1%	13%	1	-17	2.0%	-14%	0.9
CCOc1ccccc1CN1C(=O)NC(C)(c2ccccc2)C1=O (centres undefined)	-18%	9%	1	10	2.2%	17%	-1.9
O=C(Nc1ccc(Cl)cc1)C1C2CCC3C(CCC21)C3(Cl)Cl (centres undefined)	-8%	7%	-2	-1	0.4%	?	-4.1
Cc1cc(C)cc(NC(=O)COC(=O)COc2cccc3c2OC(C)(C)C3)c1	3%	.	7	11	0.6%	0%	.
c1ccc(-c2nnc(NC3=NCCC3)o2)cc1	9%[15.4 µM]	-10%	-3	4	0.3%	1%	-6.1
CCN1CCN(C(=O)c2cc3cc4ccc(OC)cc4nc3s2)CC1	-11%	1%	-27	3	25µM*	6%	-6.5
O=C(O)c1ccccc1NS(=O)(=O)c1cccc(N=Nc2c(O)[nH]c(=S)[nH]c2=O)c1	54%[15.4 µM]	.	?	20	.	-5%	.
COc1cc(NC(=O)c2ccco2)c(C(=O)OCC(=O)c2c[nH]c3ccccc23)cc1OC	-6%	4%	.	24	4.4%	-3%	12
O=C(COc1cccc(Cl)c1)N/N=C\c1cc2ccccc2nc1Cl	-8%	-18%	3	5	113%	-16%	1.5
CCOC(=O)C1(Cc2cccc(OC)c2)CCN(Cc2ccon2)CC1	-19%	22%	9	-28	-1.5%	11%	-2.8
Cc1c(-n2cc(C(=O)c3cc(Cl)ccc3O)cc(C#N)c2=O)c(=O)n(-c2ccccc2)n1C	-23%	11%	-5	25	24%	-7%	?
S=C(NC1CC1)NC1CCCc2ccccc21 (centres undefined)	5%	20%	.	-29	-3.5%	3%	-1.7
Cc1nn(-c2ccccn2)c2nc(-c3cccs3)cc(C(=O)NCc3ccco3)c12	?	?	-17	-4	13µM*	-3%	5.2
O=C(NCC(=O)N1CCN(c2ncccn2)CC1)c1ccccc1F	-21%	.	11	.	-12%	-11%	.
Cc1cc(Cl)ccc1OCC(=O)NNC(=O)C1CSC2(C)CCC(=O)N12 (centres undefined)	-16%[15.4 µM]	.	2	-15	.	2%	.
COc1ccc(Cc2nnc(N/N=C/c3ccc(O)cc3O)[nH]c2=O)cc1OC	30%	?	-93*	2	0.8%	7%	2.4
CC(=O)N1CCN(C(=O)c2ccc(Cl)c(S(=O)(=O)N3CCCC3)c2)CC1	2%	.	-14	.	.	6%	.
COc1cc(C(=O)Nc2ccc(S(=O)(=O)N3CCOCC3)cc2)c([N+](=O)[O-])cc1OC	?	1%	6	6	.	8%	-5.1
COc1ccccc1N1CCN(S(=O)(=O)c2ccc3c(c2)CC(C)N3C(C)=O)CC1 (centres undefined)	0%	2%	.	-7	-0.7%	-9%	.
c1ccc(-c2nnsc2Sc2ccccn2)cc1	9%[15.4 µM]	7%	26	-8	.	-15%	0.4
CSc1ccc(S(=O)(=O)N2CCN(Cc3ccc4c(c3)OCO4)CC2)cc1	-38%[inhibitor]	1%	-10	4	-1.8%	4%	-12
CC(C)Oc1ccc(OCCNC2CCCC2)cc1	-41%[inhibitor]	50µM*	1	-4	1.3%	7%	-3.7
Cn1c(SCc2ccc(Br)cc2)nnc1-c1ccccn1	?	9%	-15	1	.	-2%	-0.1
CC(=O)OCCOCn1cnn2c(=O)c(Br)c(C)nc12	?	14%	8	-2	-0.3%	6%	1.3
Cn1c(CNC(=O)c2ccccc2F)cc2ccccc21	-21%	-1%	.	-18	-1.2%	-3%	-6.5
COc1ccccc1CNC(=O)CSc1nc2c(oc3ccccc32)c(=O)n1CC1CCCO1 (centres undefined)	10%[15.4 µM]	.	12	8	0.7%	5%	.

Look-ups from the list:
gsp agonist, COc1ccccc1CNC(=O)CSc1nc2c(oc3ccccc32)c(=O)n1CC1CCCO1 (centres undefined) = 10%[15.4 µM]
ClpP mod, CC(=O)OCCOCn1cnn2c(=O)c(Br)c(C)nc12 = -0.3%
ClpP mod, COc1ccccc1N1CCN(S(=O)(=O)c2ccc3c(c2)CC(C)N3C(C)=O)CC1 (centres undefined) = -0.7%
gsp agonist, CC(C)Oc1ccc(OCCNC2CCCC2)cc1 = -41%[inhibitor]
ClpP mod, Cn1c(CNC(=O)c2ccccc2F)cc2ccccc21 = -1.2%

Further entries.
molecule	gsp agonist	Sfp PPTase inh	CtBP-E1A blk	TRPV1 PAM	ClpP mod	gsp antagonist	Menin MLL FP FL
Cc1onc(-c2ccccc2)c1C(=O)NCCc1ccncc1	21%	11%	0	3	-1.8%	6%	.
Cc1ccc(NC(=O)COC(=O)c2cccnc2)cc1	6%	6%	-16	14	.	2%	-4.7
Cc1nccc(-c2cccc(NC(=O)c3ccccc3Cl)c2)n1	1%	?	.	27	-3.5%	3%	4.8
Cc1cc(C)nc(NCC(O)COc2ccccc2C)n1 (centres undefined)	4%	8%	6	-9	1.5%	0%	0.1
COc1ccc(CNC(=O)CCS(=O)(=O)Cc2ccc(C)cc2)c(OC)c1	11%[15.4 µM]	10%	2	1	0.0%	-7%	1.3
Cc1ccc(S(=O)(=O)CCC(=O)N2CCN(c3ccc([N+](=O)[O-])cc3)CC2)cc1	-1%	-4%	.	-4	-3.9%	5%	-4.8
CC(=O)Nc1ccc(SCCCC(=O)c2ccccc2)cc1	44%[15.4 µM]	7%	0	-8	.	-7%	2.8
CCOc1nc2ccccc2cc1/C=C/C(=O)O	-13%	12%	7	15	.	-1%	2.1
CCN(CC)C(=O)C1=C(C)N(CCCOC)C(=O)C(CC(=O)NC2CCCC2)C1 (centres undefined)	-19%	.	4	.	0.2%	.	.
O=C(c1ccc(-c2ccccc2Cl)o1)N1CCCCCCC1	-12%[15.4 µM]	.	6	.	.	-20%	.
CCN(CC)C(=O)C(=O)Nc1cc(C(F)(F)F)ccc1Cl	0%	7%	3	-6	-4.8%	4%	3.0
COc1cc(OC)cc(-c2nnc(SCc3cccnc3)o2)c1	?	1%	10	-3	-1.1%	2%	2.3
COc1ccccc1/C=C\C=N\n1c(-c2ccc(Cl)cc2Cl)n[nH]c1=S	8%	-2%	-18	1	6.0%	-18%	-0.4
CC1(c2ccc(OC(F)F)cc2)NC(=O)N(CC(=O)Nc2cccc(F)c2)C1=O (centres undefined)	15%[15.4 µM]	-1%	-7	-7	.	4%	2.3
COc1ccc(NC(=O)C(=O)NNC(=O)COc2ccc(Cl)cc2)c(OC)c1	-1%	29%	-26	5	-0.9%	-10%	-0.4
Cc1c(NC(=O)CSc2nnc(-c3ccccc3F)o2)c(=O)n(-c2ccccc2)n1C	0%	.	6	.	0.6%	.	.

Complete entries, looked up by structure. Order of values: gsp agonist	Sfp PPTase inh	CtBP-E1A blk	TRPV1 PAM	ClpP mod	gsp antagonist	Menin MLL FP FL
CCN(CC)C(=O)C1=C(C)N(CCCOC)C(=O)C(CC(=O)NC2CCCC2)C1 (centres undefined) in the list: -19%	.	4	.	0.2%	.	.
CCN(CC)C(=O)C(=O)Nc1cc(C(F)(F)F)ccc1Cl in the list: 0%	7%	3	-6	-4.8%	4%	3.0

Next section:
molecule	gsp agonist	Sfp PPTase inh	CtBP-E1A blk	TRPV1 PAM	ClpP mod	gsp antagonist	Menin MLL FP FL
O=C(CN1CCCCCC1)Nc1c(Cl)cc(Cl)cc1Cl	-22%	6%	-15	0	-2.0%	17%	5.1
COc1cccc(Oc2ccc(C(F)(F)F)cc2N)c1	-2%	10%	24	-12	-2.6%	1%	0.5
C=C(C)c1cccc(C(C)(C)NC(=O)Nc2ccccc2OCC)c1	-35%[inhibitor]	23%	-3	0	1.8%	4%	2.1
Cc1cccc(NC(=O)CN2C(=O)NC3(CCCCCCC3)C2=O)c1C	0%[15.4 µM]	.	12	.	-2.7%	6%	.
COc1ccc(CNc2nc3nc(C)c(Cl)c(C)n3n2)cc1	-7%	11%	12	?	.	9%	0.4

From PubChem
